Assay outcomes (PubChem)
2A firefly = FMDV 2A StopGo reporter, firefly signal; HEK cells with a luciferase reporter of 2A StopGo recoding; Potency, µM (highest dose often 57.5 µM), without a hit: at the highest dose signal change, negative = less light; 0.23% of 120,000 active; active = well fitted falling curve with a large enough effect; inconclusive = small, poorly fitted or top-dose-only effect; inactive = no such curve, though single readings can be large or run the other way; also: nearly all actives have a fitted effect of over 60% in size; overnight with compound
2A Renilla = lowers the Renilla signal of an FMDV 2A StopGo reporter; Potency, µM (doses to about 57.5 µM), for the others: at the top dose signal change, negative = less light; HEK cells with a luciferase reporter of 2A StopGo recoding; 0.32% of 120,000 active; AID 1745857; active means well fitted falling curve with a large enough effect; inconclusive means small, poorly fitted or top-dose-only effect; inactive means no such curve, though single readings can be large or run the other way; also: nearly all actives have a fitted effect of over 55% in size; overnight with compound
Active calls of the source: *; ? = inconclusive; & = joins results of further samples; [ ] = remark or other dose. % is scaled to controls: 0 for no effect and ±100 for the full control effect; potency is read from the fitted curve at half-maximal effect. An excerpt; rates above refer to the full screens.

SMILES | 2A firefly | 2A Renilla
COc1ccc(CNC(=O)c2cccc(N3CCCS3(=O)=O)c2)cc1OC | ? | -5.9%
O=C(Nc1ccccc1)c1ccc(CSc2ccc3c(c2)OCCCO3)cc1 | 0.0% | 15.1%
CCOC(=O)Cc1c(C(=O)OCC)nnc2c(-c3ccccc3)c(C)nn12 | 20.5% | 13.6%
CC(C)CN(CC(C)C)C(=O)C1CCCN(S(=O)(=O)c2ccc3c(c2)oc(=O)n3C)C1 (stereo not given) | -20.1% | -7.8%
CCOC(=O)c1c(C)[nH]c(C(=O)COc2cc(Cl)ccc2Cl)c1C | -5.1% | 1.7%
OC(COc1ccc(Br)cc1)CN1CCCN(c2ccc(C(F)(F)F)cn2)CC1 (stereo not given) | -13.0% | -18.8%
CCCc1cc(=O)[nH]c(SCC(=O)N2CCN(S(=O)(=O)c3ccc(C)cc3)C2)n1 | 6.9% | 9.2%
Cc1cc(C(=O)O)ccc1-c1ccc(/C=N/O)o1 | 125.8%[activator] | -6.1%
CCCC(=O)Nc1oc2c(C)cccc2c(=O)c1-c1ccccc1 | 18.8% | 16.3%
Fc1cccc(/C=N/Nc2ccc(Cl)c(Cl)c2)c1 | 157.9%[activator] | 0.6%
COc1cccc(-c2nnc(SCC(=O)Nc3ccc4c(c3)OCO4)n2-n2cccc2)c1 | 1.1% | 8.7%
CC1CCC(=NNC(=S)NC2CCCCC2)CC1 (stereo not given) | 37.9%[activator] | 1.4%
CC(=O)Nc1cccc(NC(=O)CCc2c(C)[nH]n(-c3ccc(F)cc3)c2=O)c1 | -8.2% | -12.0%
CCCNc1c(NC(=O)NCCCOCC)c(=O)oc2ccccc12 | -5.5% | -2.7%
Cc1cc(O)c(C(c2ccccc2)N2CCN(c3ccccc3F)CC2)c(=O)n1Cc1ccco1 (stereo not given) | -23.5% | 3.8%
CN1C(C(=O)Nc2ncccn2)=C(O)c2ccccc2S1(=O)=O | -7.7% | -9.5%
NS(=O)(=O)c1ccc(CCNC(=O)c2nc(SCc3ccccc3F)ncc2Cl)cc1 | -12.0% | 27.0%
O=C(NCC(c1cccnc1)N1CCOCC1)C(=O)Nc1ccc(Cl)cc1 (stereo not given) | -14.0% | -1.1%
COCCN(CCOC)S(=O)(=O)c1ccc(C(=O)Nc2sc3c(c2C(=O)OC)CCN(C)C3)cc1 | 0.0% | 0.0%
CCCCNC(=O)CSc1nc2nc(C)c(Cc3ccccc3C)c(C)n2n1 | ? | ?

An excerpt from above in order of molar mass, high to low.
SMILES | 2A firefly | 2A Renilla
NS(=O)(=O)c1ccc(CCNC(=O)c2nc(SCc3ccccc3F)ncc2Cl)cc1 | -12.0% | 27.0%
CCCCNC(=O)CSc1nc2nc(C)c(Cc3ccccc3C)c(C)n2n1 | ? | ?
O=C(Nc1ccccc1)c1ccc(CSc2ccc3c(c2)OCCCO3)cc1 | 0.0% | 15.1%
CCOC(=O)c1c(C)[nH]c(C(=O)COc2cc(Cl)ccc2Cl)c1C | -5.1% | 1.7%
CCCNc1c(NC(=O)NCCCOCC)c(=O)oc2ccccc12 | -5.5% | -2.7%
CN1C(C(=O)Nc2ncccn2)=C(O)c2ccccc2S1(=O)=O | -7.7% | -9.5%
Cc1cc(C(=O)O)ccc1-c1ccc(/C=N/O)o1 | 125.8%[activator] | -6.1%

Following part
SMILES | 2A firefly | 2A Renilla
CCn1c(=O)c2c(nc3n2CCN3c2ccc(OC)cc2)n(C)c1=O | 35.4% | -12.2%
Cc1oc(-c2ccc(C(=O)NCc3ccc(N(C)C)cc3)cc2)nc1COc1ccccc1 | -8.0% | -5.3%
COc1ccc(OC)c(C2CC(=O)Nc3ccc4ccccc4c32)c1 (stereo not given) | 15.9% | 70.6%[activator]
CCc1ccc(NC(=O)N2CCN(S(=O)(=O)c3cc4c(cc3Cl)NC(=O)C(C)O4)CC2)cc1 (stereo not given) | 8.8% | 18.6%
C/C(=N/O)c1cnn(-c2ccccc2)c1C | 115.0%[activator] | 7.9%
Cc1[nH]c2ccccc2c1C(=O)C(C#N)C(=O)C1CC=CCC1 (stereo not given) | -1.5% | 3.4%
COc1ccccc1NC(=O)C1=C(C)Nc2nc(SC)nn2C1c1cccc(C)c1 (stereo not given) | -5.1% | -6.3%
CCC(CC)C(=O)N1CCc2cc(OC)c(OC)cc2C1COc1ccc(F)cc1 (stereo not given) | -5.9% | 18.3%
Cc1cc(-c2nc3ncccc3o2)ccc1NC(=O)COc1ccc(C(C)(C)C)cc1 | 6.2% | 4.1%
CCc1ccc(C2N3CC4(C)CN2CC(c2ccccc2)(C3)C4=O)cc1 (stereo not given) | -3.8% | -6.1%
N#Cc1cccc(NC(=O)Cn2nc3c(N4CCCCC4)nc4ccccc4n3c2=O)c1 | 16.8% | -9.7%
Cc1ccc(CNC(=O)c2cc(S(=O)(=O)N3CCCC(C)C3)cn2C)cc1 (stereo not given) | -14.0% | 132.8%[activator]
Cc1ccc(NC(=S)NNC(=O)C(c2ccccc2)c2ccccc2)c(C)c1 | 0.5% | 247.2%[activator]
CC[C@H](C)[C@H](NC(N)=O)C(=O)Nc1ccc(C)cc1 | -11.2% | -15.1%
COc1ccc(-c2nc(CNC(=O)Nc3ccccc3)c(C)o2)c(OC)c1 | 2.2% | 126.5%[activator]
Cc1cccc(OCC(=O)N(Cc2cccs2)c2ccc(Cl)cc2)c1C | ? | -28.1%
CC1(C)CC(NC(=O)CC(=O)NC2CC(C)(C)NC(C)(C)C2)CC(C)(C)N1 | 0.4% | 1.7%
O=C(NCCc1cccnc1)c1ccc(Cl)cc1Cl | 0.0% | 16.2%
Cc1ccc(C)c(N2CCN(CCCNC(=O)Cn3c(-c4cccs4)cc4ccccc43)CC2)c1 | -10.8% | -2.8%
O=C(Cn1c(=O)n(-c2ccc(F)cc2)c(=O)c2sccc21)Nc1cccc(C(F)(F)F)c1 | 9.9% | 2.7%
C#CCNC1CCCCC1 | -11.9% | -3.9%
CC(C)NC(=O)CC(=O)Nc1ccc2nc3n(c(=O)c2c1)CCCCC3 | 22.6% | -3.8%
COc1ccc(C(C)NC(=O)Cc2ccsc2)cc1F (stereo not given) | -5.1% | 0.9%
COc1cccc(C(=O)OC2CCCN(C)C2)c1 (stereo not given) | 16.4% | -2.7%
CCNC(=O)NC(=O)CN(Cc1ccccc1)c1ccccc1 | -1.0% | 11.1%
C=CCNC(=O)C1CCN(Cc2ccc(Cl)cc2)CC1 | -6.5% | -10.5%
Cc1c(C(=O)N(C)Cc2nc3ccccc3c(=O)[nH]2)oc2ccc(F)cc12 | 2.7% | -6.6%
NC(=O)c1cc([N+](=O)[O-])cc([N+](=O)[O-])c1 | -4.2% | -6.5%
CCC(CNC(=O)Cn1cnc2c1c(=O)n(C)c(=O)n2C)c1ccccc1 (stereo not given) | -9.4% | -14.2%
Cc1nn2c(=O)cc(COC(=O)c3cccs3)nc2s1 | -11.9% | -13.3%
COc1ccc(OC)c(C(=O)CSc2nnc(Nc3c(C)cccc3C)s2)c1 | 1.2% | 0.0%
CC(=O)Nc1ccc(NC(=O)CCCN(c2ccc(Cl)cc2)S(C)(=O)=O)cc1 | -2.8% | 13.4%
CC(=O)N1CCc2cc(Br)cc(S(=O)(=O)CCC(=O)N3CCN(c4ccc(F)cc4)CC3)c21 | -8.8% | -11.4%
CCCn1c(C2NC(=O)NC(C)=C2C(=O)OCc2ccccc2)nc2ccccc21 (stereo not given) | 1.9% | -1.2%
CCNc1c(NC(=O)NC)c(=O)oc2ccccc12 | 1.0% | -7.4%
COc1ccc(CN(Cc2ccco2)C(=O)c2ccccc2F)cc1 | -9.1% | 35.8%[activator]
CCOC(=O)C(C(=O)OCC)C(NC(C)=O)C(Cl)(Cl)Cl (stereo not given) | -10.3% | -4.4%
O=c1cc[se]c2ccccc12 | 23.6% | 16.3%
CC(C)c1ccc(NC(=O)CSc2nnc(-c3ccccc3Cl)n2C)cc1 | 3.1% | -0.9%
NC(=O)c1ccsc1NC(=O)CSc1ccc2c(c1)CCC2 | 110.9%[activator] | -9.2%

3 entries from above, with values under each structure:
Results follow in this order: 2A firefly	2A Renilla
C=CCNC(=O)C1CCN(Cc2ccc(Cl)cc2)CC1
→ -6.5%	-10.5%
CC(=O)Nc1ccc(NC(=O)CCCN(c2ccc(Cl)cc2)S(C)(=O)=O)cc1
→ -2.8%	13.4%
COc1ccc(OC)c(C(=O)CSc2nnc(Nc3c(C)cccc3C)s2)c1
→ 1.2%	0.0%

(listing goes on)
SMILES | 2A firefly | 2A Renilla
Cc1ccc(NC(=O)Cn2ccn(-c3ccc(F)c(F)c3)c(=O)c2=O)cc1C | -4.0%&-15.9% | -13.8%&-16.7%
Cc1c(-c2cccc3ccccc23)c(=O)oc2ccc(Br)cc12 | ? | -1.9%
CCC(=O)Nc1ccc(-c2csc(NCCOC)n2)cc1 | 37.0%[activator] | 88.1%[activator]
CCNc1c(NS(=O)(=O)c2ccc(F)c(C)c2)c(=O)oc2ccccc12 | 25.4% | 4.8%
CC(C)n1c(=O)c2oc3ccccc3c2n(CC(=O)Nc2ccccc2Cl)c1=O | -28.4% | -13.5%
Cc1cc(C)c2oc(-c3cccc(NC(=O)c4ccccc4[N+](=O)[O-])c3)nc2c1 | 14.1% | -4.5%
NCCNCCNCCNCCN | -4.9%[11.5 µM] | 0.9%[11.5 µM]
COc1ccc(CNC(=O)N2CCN(S(=O)(=O)c3c(Cl)cccc3Cl)CC2)cn1 | ? | 0.0%
CCCN(CC1CC1)C(=O)CNC(N)=O | -12.6% | -5.6%
COc1ccc(Nc2ncc3c(n2)CCN(Cc2ccccc2C)C3)c(OC)c1 | -0.5% | -6.3%
COC(=O)N/N=C/c1ccccc1OC(C)=O | 51.9%[activator] | 5.1%
O=C(CN1C(=O)C2(SCC(=O)N2c2cccc(Cl)c2)c2ccccc21)NCc1ccccc1 (stereo not given) | -18.8% | 9.4%
CCN(CC)C(=O)Cn1nc(-c2ccc(C)c(S(=O)(=O)N(C)C)c2)c2ccccc2c1=O | 0.5% | -4.5%
Cc1cc(C)nc(NC(=NCCc2c[nH]c3ccc(Cl)cc23)NC(=O)c2ccccc2C)n1 | 6.5% | -6.0%
COC(=O)Cc1csc(NC(=O)Cc2c(C)c3ccc(O)cc3oc2=O)n1 | -3.5% | 11.0%
CC(C)c1cnc2c(c1SCc1cccc(F)c1)c(=O)n(C)c(=O)n2C | -11.3% | 2.8%
CC(=O)c1c(C)nc(C2CC2)nc1SCC(=O)NC(C)C12CC3CC(CC(C3)C1)C2 (stereo not given) | -2.7% | 7.6%
CNC(=O)C1CCC(Cn2c(=O)c3sccc3n(CC(=O)N3CCC(C)CC3)c2=O)CC1 (stereo not given) | -10.1% | -4.9%
COc1ccc(S(=O)(=O)NCCN2CCCCC2)cc1F | -8.2% | -1.7%
Nc1c(C(=O)Nc2ccc(Br)cc2F)sc2nc3c(cc12)N1CCC3CC1 | 10.8% | -11.8%
Cc1ccc(-c2cc(C(=O)NCCCc3[nH]nc(N)c3C#N)c3ccccc3n2)o1 | 78.7%[activator] | 63.3%[activator]
COc1ccc(Cl)cc1NC(=O)COC(=O)c1sc2ccccc2c1Cl | -8.9% | -11.6%
COC(=O)c1cnc(N2CCN(c3ccc(OC)cc3)CC2)c2ccccc12 | 12.9% | -6.9%
CCCNC(=O)C(C)Sc1ncc(-c2ccc(Cl)cc2)o1 (stereo not given) | 90.2%[activator] | -11.9%
Cc1ccc(S(=O)(=O)C(CC(=O)c2ccccc2)C(=O)c2ccc(Cl)cc2)cc1 (stereo not given) | 191.6%[activator] | -6.4%
Cc1c(Cl)cccc1NC(=O)C(C)N1CCC(C(=O)NCc2ccccc2)CC1 (stereo not given) | 12.9% | -7.1%
COc1ccc(/C=C(/C#N)c2ccccn2)cc1F | 94.9%[activator] | 2.5%
Cc1cccc(NC(=O)C2CCCN(S(=O)(=O)c3c(C)n[nH]c3C)C2)c1 (stereo not given) | -10.4% | 8.2%
Cc1ccccc1NC(=O)Cn1nc(-c2ccc(F)cc2)c2cnc3ccccc3c21 | -26.1% | -16.5%
O=C(O)/C=C/C(=O)Nc1ccccc1C(F)(F)F | -0.3% | -5.0%
COC(=O)c1c(NC(=O)c2nc(SCc3ccc(F)cc3)ncc2Cl)sc2c1CCCC2 | -13.2% | -2.7%
CCC(C)NC(=O)COc1ncnc2ccccc12 (stereo not given) | 15.9% | 14.9%
COCCCNC(=O)CN1C(=O)COc2ccc(S(=O)(=O)N3CCOCC3)cc21 | -6.1% | -7.9%
CCOC(=O)c1cc2c(=O)n3ccccc3nc2n(Cc2ccco2)c1=NC(=O)c1ccc(F)cc1 | 49.7%[activator] | 79.6%[activator]
COc1ccc(N(CC(=O)NCCc2ccccc2)S(=O)(=O)c2c(C)nn(C)c2C)cc1 | -25.4% | -6.9%
CCOC(=O)c1ccc(N2C(=O)c3n[nH]c(C)c3C2c2ccccc2)cc1 (stereo not given) | 11.6% | 38.0%[activator]
CCN(CC)C(=O)c1sc2c(c1C)c(=O)n(Cc1ccccc1)c(=O)n2Cc1cc(C)ccc1C | -11.0% | -3.9%
CCOC(=O)c1cc2c(=O)n3ccccc3nc2n(C(C)C)c1=NC(=O)C(C)(C)Oc1ccc(Cl)cc1 | -5.1% | 13.9%
O=C(NCc1ccccc1Cl)NCc1noc2ccccc12 | 66.6%[activator] | 9.2%
N#Cc1ccccc1Cn1c(=O)n(CCCC(=O)NCc2ccc3c(c2)OCO3)c(=O)c2sccc21 | 4.5% | 8.0%
CCOc1ccc(-n2nnnc2CNC(=O)Nc2ccc3c(c2)OCO3)cc1 | 42.2%[activator] | 91.6%[activator]
COc1ccc(C(C)=O)cc1CC(=O)NCc1nnc2ccccn12 | -17.2% | -11.0%
CCc1ccccc1NC(=O)Cn1nc(N2CCN(c3ccccc3OC)CC2)ccc1=O | -0.1% | 3.0%
NC(=O)c1nc(Nc2ccccc2)sc1NC(=O)c1c(F)cccc1F | 98.2%[activator] | -5.5%
